Methyltransferases: Primary Screen for Target Class Profiling of Small Molecule Inhibitors of Methyltransferases | AID 1745853, 2022 | purified enzyme, MTase-Glo SAH luminescence; stronger effect = lower value | 25,000 compounds, 3.9% hits | calls only at 40 µM; active = -50% or lower on at least one of six enzymes; inconclusive = the cases between; inactive = as a rule above -30% on all six;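 further: enzymes were COMT GAMT GNMT HNMT NNMT and PNMT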
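Each enzyme was reacted with SAM and its substrate, with compounds tested once at 40 uM; SAH formed was read by MTase-Glo luminescence.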
Calls only; i = inactive; ? = inconclusive; + = active, no number. On the % scale 0 is the no-effect control and ±100 the full control effect. Only part of the results is shown (hit frequency here may not be typical).

Molecule,Methyltransferases
O=C(Nc1cccc(C(F)(F)F)c1)N1Cc2ccccc2-n2cccc2C1c1cccs1 (stereo not given),i
CCc1ccc(C2c3cccn3-c3ccccc3CN2C(=O)Nc2cccc(OC)c2)cc1 (stereo not given),i
O=C1N(Cc2ccccn2)C[C@H]2CN(Cc3nccs3)CCN12,i
COc1ccc(NC(=O)N2Cc3ccccc3-n3cccc3C2c2ccc(C)cc2)cc1OC (stereo not given),i
COc1ccc(C2c3cccn3-c3ccccc3CN2C(=O)Nc2ccccc2Cl)cc1 (stereo not given),i
CCC1CC2CN3CCc4c([nH]c5ccccc45)C(C(=O)OC)(C2)C13 (stereo not given),i
COC(=O)C1=CCCN(C)C1,i
CCOc1ccc(NC(=O)N2Cc3ccccc3-n3cccc3C2c2ccc(N(C)C)cc2)cc1 (stereo not given),i
CCOc1ccccc1NC(=O)N1Cc2ccccc2-n2cccc2C1c1ccc(N(C)C)cc1 (stereo not given),i
CCOc1ccc(C2c3cccn3-c3ccccc3CN2C(=O)Nc2cc(Cl)ccc2OC)cc1 (stereo not given),i

Of the compounds above, these have sulfur.
Molecule,Methyltransferases
O=C(Nc1cccc(C(F)(F)F)c1)N1Cc2ccccc2-n2cccc2C1c1cccs1 (stereo not given),i
O=C1N(Cc2ccccn2)C[C@H]2CN(Cc3nccs3)CCN12,i

Additional entries follow.
Molecule,Methyltransferases
FC(F)(F)c1ccc(N2CCNCC2)nc1Cl,i
CC1=C2C[C@H]3[C@@H](CC=C4C[C@@H](O)CC[C@@]43C)[C@@H]2CC[C@]12O[C@@H]1C[C@H](C)CN[C@H]1[C@H]2C,i
Cc1cccc(C2c3cccn3-c3ccccc3CN2C(=O)Nc2cc(C)ccc2C)c1 (stereo not given),i
NCCc1c[nH]c2ccc(O)cc12,?
Nc1ncnc2c1ncn2[C@@H]1O[C@@H]2COP(O)(=S)O[C@H]2[C@H]1O (stereo not given in full),i
COCC1OC(=O)c2coc3c2C1(C)C1=C(C3=O)C2CCC(=O)C2(C)CC1O (stereo not given),i
c1ccc(CCCN2CCN(CCOC(c3ccccc3)c3ccccc3)CC2)cc1,i
CN(C(=O)C(c1ccccc1)c1ccccc1)[C@H](CN1CC[C@H](O)C1)c1ccccc1,i
CC(=O)O[C@H]1C[C@@H](C)O[C@H]2O[C@@H]3CC4CC[C@@H]5C(CC[C@]6(C)[C@@H](C7=CC(=O)OC7)CC[C@]56O)[C@@]4(C=O)C[C@H]3O[C@]21O (stereo not given in full),i
CN(C)C(=O)CC1CCOC2(CCNCC2)C1 (stereo not given),i

Fetched by structure from the entries so far, 6 records:
Molecule,Methyltransferases
CN(C)C(=O)CC1CCOC2(CCNCC2)C1 (stereo not given),i
c1ccc(CCCN2CCN(CCOC(c3ccccc3)c3ccccc3)CC2)cc1,i
NCCc1c[nH]c2ccc(O)cc12,?
FC(F)(F)c1ccc(N2CCNCC2)nc1Cl,i
COCC1OC(=O)c2coc3c2C1(C)C1=C(C3=O)C2CCC(=O)C2(C)CC1O (stereo not given),i
CC1=C2C[C@H]3[C@@H](CC=C4C[C@@H](O)CC[C@@]43C)[C@@H]2CC[C@]12O[C@@H]1C[C@H](C)CN[C@H]1[C@H]2C,i

(next part)
Molecule,Methyltransferases
CCCCCn1cc(C(=O)C2C(C)(C)C2(C)C)c2ccccc21,?
CCn1cc(CN2CCN(C(=O)COc3ccccc3)CC2)ccc1=O,i
CC(=O)O[C@H]1C[C@@H](OC(C)=O)C(C)(C)C2C[C@@H](O)[C@]3(C)C(CC[C@@]4(C)[C@H](C5=CC(=O)OC5O)C[C@H]5O[C@]543)[C@]21C (stereo not given in full),?
CC12CCC3C(C1)c1c(cc(O)c(C(=O)c4ccccc4)c1OC3(C)C)O2 (stereo not given),i
Cc1ccc(C2c3cccn3-c3ccccc3CN2C(=O)Nc2cccc(Cl)c2C)cc1 (stereo not given),i
COC1C(O)C(C)OC(OC2C(CO)O[C@@H](O[C@@H]3CC4CCC5C(CC[C@]6(C)[C@@H](C7=CC(=O)OC7)CC[C@]56O)[C@@]4(C)[C@H](O)C3)C(O)C2O)C1O (stereo not given in full),i
CCOC(=O)CNC(=O)N1Cc2ccccc2-n2cccc2C1c1cccc(C)c1 (stereo not given),i
CCc1ccc(C2c3cccn3-c3ccccc3CN2C(=O)Nc2ccc(OC)cc2)cc1 (stereo not given),i
O=C(Nc1ccccc1)N1Cc2ccccc2-n2cccc2C1c1ccccc1Cl (stereo not given),i
CCc1ccc(C2c3cccn3-c3ccccc3CN2C(=O)Nc2ccc(C)c(C)c2)cc1 (stereo not given),i
COC(=O)c1ccccc1NC(=O)N1Cc2ccccc2-n2cccc2C1c1ccccc1Cl (stereo not given),i
CC1c2cccn2-c2ccccc2CN1C(=O)Nc1ccccc1 (stereo not given),i
CCc1ccccc1NC(=O)N1Cc2ccccc2-n2cccc2C1c1ccc(OC)cc1 (stereo not given),i
CC(C)NC(=O)N1Cc2ccccc2-n2cccc2C1c1cc(F)cc(F)c1 (stereo not given),i
CSc1ccc(C2c3cccn3-c3ccccc3CN2C(=O)NC2CCCC2)cc1 (stereo not given),i
CCOC(=O)c1cccc(NC(=O)N2Cc3ccccc3-n3cccc3C2c2ccc(C)cc2)c1 (stereo not given),i
CCC1c2cccn2-c2ccccc2CN1C(=O)Nc1cccc(OC)c1 (stereo not given),i
CCc1ccc(C2c3cccn3-c3ccccc3CN2C(=O)NCCC(C)C)cc1 (stereo not given),i
CC[C@@H]1/C=C/C=C/C[C@H](C)C(O)[C@](C)(O)C(=O)[C@H](C)C(O)[C@H](C)C(=O)[C@H](C)[C@@H](O)[C@H](C)/C=C/C(=O)O[C@H]2[C@@H](C)[C@@H](CC1)O[C@]1(O[C@H](C[C@H](C)O)[C@H](C)CC1=O)[C@@H]2C (stereo not given in full),i
O=C(Nc1ccc(=O)n2c1[C@@H]1C[C@@H](CN(S(=O)(=O)c3ccccc3)C1)C2)c1ccco1,i
C=C(CO)C(=O)O[C@H]1CC(=C)[C@@H]2C[C@H](O)C(=C)[C@@H]2[C@H]2OC(=O)C(=C)[C@@H]21,+
Cc1c(Cl)cccc1NC(=O)N1Cc2ccccc2-n2cccc2C1C (stereo not given),i
CCc1nn(C)c(C(=O)NCc2ccc(Oc3ccc(C)cc3)cc2)c1Cl,i
CCC(C)(C#N)O[C@@H]1O[C@H](CO)[C@@H](O)[C@H](O)[C@H]1O (stereo not given in full),i
CC1c2cccn2-c2ccccc2CN1C(=O)NCc1ccccc1 (stereo not given),i
CN1C2CCC1CC(OC(=O)N1Cc3ccccc3NC1=O)C2 (stereo not given),i
CN1C[C@@H]2CN(c3ccc(-c4ccccc4)nn3)C[C@@H]2C1,i
COc1cc2c(cc1OC)[C@@]13CCN4CC5=CCO[C@H]6CC(=O)N2[C@H]1[C@H]6[C@H]5C[C@H]43,i
CC(C)C1CN2CCCC2CN1 (stereo not given),i
O=C(NCc1ccco1)N1Cc2ccccc2-n2cccc2C1c1ccc(F)cc1 (stereo not given),i
CCOC(=O)CNC(=O)N1Cc2ccccc2-n2cccc2C1c1ccc(Cl)cc1 (stereo not given),i
CC(C)N1C[C@@H]2OCC(=O)N(Cc3ccccn3)[C@@H]2C1,i
CC1c2cccn2-c2ccccc2CN1C(=O)Nc1ccccc1Cl (stereo not given),i
CCc1[nH]c2ccc(OC)cc2c1CCN(C)C,?
COc1cc2c(cc1OCC1CCCC1)N([S+](=O)([O-])c1ccc(Oc3ccccc3)cc1)CC21CCN(CC(=O)O)CC1,i
COCCCNC(=O)N1Cc2ccccc2-n2cccc2C1c1cccc(Cl)c1 (stereo not given),i
COc1ccc(C2c3cccn3-c3ccccc3CN2C(=O)Nc2ccccc2)cc1 (stereo not given),i
CN1CCCC1CCOC(c1cc2nccc(C(=O)O)c2[nH]1)c1ccccc1Cl (stereo not given),?
COc1ccccc1NC(=O)N1Cc2ccccc2-n2cccc2C1c1ccc(F)cc1 (stereo not given),i
Cc1ccc(C2c3cccn3-c3ccccc3CN2C(=O)Nc2ccccc2)cc1 (stereo not given),i
CO[C@@H]1[C@@H](O)[C@@H](O[C@H]2CC[C@]3(C=O)C4CC[C@]5(C)[C@@H](C6=CC(=O)OC6)CC[C@]5(O)[C@@H]4CC[C@H]3C2)O[C@@H](C)[C@H]1O[C@@H]1O[C@H](CO[C@@H]2O[C@H](CO)[C@@H](O)[C@H](O)[C@H]2O)[C@@H](O)[C@H](O)[C@H]1O (stereo not given in full),i
CCCNC(=O)N1Cc2ccccc2-n2cccc2C1c1cccc(C)c1 (stereo not given),i
CCC1c2cccn2-c2ccccc2CN1C(=O)Nc1cc(OC)ccc1OC (stereo not given),i
O=C(NC1CCCC1)N1Cc2ccccc2-n2cccc2C1c1cc(F)cc(F)c1 (stereo not given),i
N#Cc1ccc(N2CCN(C(=O)COc3ccc4[nH]cc(CCN)c4c3)CC2)cc1,+

Compound activity as filed in PubChem.
